Screening data deposited in PubChem by National Center for Advancing Translational Sciences (NCATS).
D2 ag: activates the human D2 dopamine receptor; activation, % (no concentration beside the values); P14416; DiscoveRx PathHunter D2 beta-arrestin, luminescence, 90 min; 100% = 57 uM dopamine signal; 0.084% of 360,000 active; in the data active = activation above about 40%; inconclusive = about 15% to 40%; inactive = below about 15%; also: compound concentration not given in the record; the text of the record calls up to 30% inactive
Target sequence (P14416 whole entry, looked up): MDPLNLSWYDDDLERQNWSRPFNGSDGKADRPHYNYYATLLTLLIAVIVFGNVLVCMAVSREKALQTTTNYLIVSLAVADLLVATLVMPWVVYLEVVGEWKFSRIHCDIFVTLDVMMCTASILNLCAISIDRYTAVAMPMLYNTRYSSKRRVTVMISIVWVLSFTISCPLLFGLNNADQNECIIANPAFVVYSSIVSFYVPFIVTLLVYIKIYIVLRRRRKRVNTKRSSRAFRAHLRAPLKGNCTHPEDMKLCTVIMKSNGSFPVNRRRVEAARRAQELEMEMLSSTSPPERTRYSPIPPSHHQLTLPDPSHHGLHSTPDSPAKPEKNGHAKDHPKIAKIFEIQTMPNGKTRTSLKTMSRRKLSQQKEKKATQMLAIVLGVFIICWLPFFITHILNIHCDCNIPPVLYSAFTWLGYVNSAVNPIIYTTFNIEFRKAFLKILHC
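Agonist mode: compounds alone added to overnight-plated D2 PathHunter cells for 90 min at 37 C, with 57 uM final dopamine (EC100) defining full response. Beta-arrestin recruitment detected by chemiluminescent reagent, read after 1 h at ambient temperature.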
TRPML1 blocker: inhibitors of human TRPML1 channel. TRPML1-inducible cells, Ca2+ dye fluorescence, FDSS; stronger effect = lower value; inhibition of EC80 agonist-evoked calcium signal. AID 624415. activity change, negative = inhibition, % (test concentration not listed). Q9GZU1. 0.02% of 390,000 active; in the data active means activity change below about -50%; inconclusive means about -30% to -50%; inactive means above about -30%;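 also: stimulus is agonist 54-4 at its EC80 concentration; % is scaled to controls: 0 for no effect and ±100 for the full control effect; compound concentration not given in the record; the text of the record puts the active cut at -80%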
Target sequence (Q9GZU1 whole entry, looked up): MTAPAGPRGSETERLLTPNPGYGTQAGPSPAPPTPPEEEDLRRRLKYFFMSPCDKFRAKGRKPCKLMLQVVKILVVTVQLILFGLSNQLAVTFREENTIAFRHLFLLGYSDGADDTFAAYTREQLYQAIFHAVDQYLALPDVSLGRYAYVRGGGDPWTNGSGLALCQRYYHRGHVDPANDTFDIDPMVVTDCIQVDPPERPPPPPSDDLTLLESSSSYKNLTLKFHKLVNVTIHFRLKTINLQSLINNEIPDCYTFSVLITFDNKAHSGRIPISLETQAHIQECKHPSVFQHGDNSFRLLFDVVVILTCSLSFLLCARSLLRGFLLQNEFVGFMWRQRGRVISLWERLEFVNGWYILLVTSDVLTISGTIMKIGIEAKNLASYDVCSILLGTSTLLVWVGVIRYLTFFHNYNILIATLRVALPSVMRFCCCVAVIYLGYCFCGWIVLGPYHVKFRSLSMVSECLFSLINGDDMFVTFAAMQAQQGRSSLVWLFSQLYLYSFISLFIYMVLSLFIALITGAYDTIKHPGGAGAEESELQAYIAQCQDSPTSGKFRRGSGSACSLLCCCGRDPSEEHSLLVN
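Tet-induced TRPML1-DL cells loaded with Ca8 no-wash calcium dye were read kinetically on FDSS. Compound addition was followed by EC80 agonist 54-4 (4 uM final); inhibition was read over 110 s.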
D2 potentiator: human D2 receptor positive allosteric modulation; P14416; DiscoveRx D2 beta-arrestin cells, luminescence, 90 min; 100% = 57 uM dopamine signal; potentiation, % (concentration not given with the values); 0.23% of 360,000 active; AID 624464; active = potentiation of 50% or more; inconclusive = 30% to 50%; inactive = 30% or less;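 also: compound concentration not given in the record; tested on top of an EC20 dose of dopamine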
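PathHunter beta-arrestin assay in DiscoveRx D2 cells. Compounds were added with an EC20 of dopamine (50 nM final) for 90 min at 37 deg C. Luminescence was read 1 h after detection reagent, with 57 uM dopamine as the EC100 control.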
PINK1 expr mod: modulators of PINK1 expression | PINK1 immunofluorescence, high-content cytometry, 24 h | Potency, µM (doses to about 76.6 µM), for the others: at the highest dose activation (PINK1 increase), hits mostly activators | 0.2% of 410,000 active | AID 624263; active = well fitted activation curve with a large enough effect; inconclusive = small, poorly fitted or top-dose-only effect; inactive = flat fitted curve, though single readings scatter; cell line not stated here;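 also: potency is read from the fitted curve at half-maximal effect; % of control where 0% means no effect; nearly all actives have a fitted effect of over 65% in size; a mitochondrial uncoupler was the plate control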
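PINK1 protein, normally rapidly degraded, was detected by immunofluorescence after 24 hour compound treatment of a stable cell line. Titration data (5 concentrations) came from laser-scanning cytometry, with CCCP-treated wells as controls.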
Six1-Eya2 inh: blocks human Six1 binding to Eya2; Q15475+O00167; AlphaScreen GST-Six1/His-Eya2 binding, biochemical; stronger effect = lower value; control for the full effect not named in the record; activity change, % (test concentration not listed); 0.56% of 360,000 active; in the data active = activity change below about -65%; inconclusive = about -30% to -65%; inactive = above about -30%; also: % is scaled to controls: 0 for no effect and ±100 for the full control effect; compound concentration not given in the record
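Compounds are tested against tagged Six1 and Eya2 proteins bridged by glutathione donor and nickel acceptor beads; after a one-hour incubation at 37 °C without light, AlphaScreen emission is recorded.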
TRPML1 agonist: agonists of human TRPML1 channel. TRPML1-expressing cells, Ca2+ dye fluorescence, FDSS; host cell line not named in the record; reference of the full effect not given here. activation, % (concentration not given with the values). 0.12% of 410,000 active; in the data active = activation above about 50%; inconclusive = about 30% to 50%; inactive = below about 30%; also: 0% is about no effect; the text of the record puts the active cut at 80%
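Cells: TRPML1-DL, 1X Tet inducer, ~16 h at 37 degrees C/5% CO2. Dye: ABD Ca8 no-wash + quencher, 45-90 min RT. Read: 10 s baseline, compound add, 110 s agonist phase; 54-4 EC80 (4uM final), 110 s antagonist phase.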
An asterisk follows results filed as active; ? = inconclusive; · = no result given; & = joins results of further samples; [ ] = dose if it differs, or a comment.

SMILES	D2 ag	TRPML1 blocker	D2 potentiator	PINK1 expr mod	Six1-Eya2 inh	TRPML1 agonist
COc1ccccc1Oc1nc([N+](=O)[O-])nn1CC(N)=O	0.1	14.2	-1.9	3.0%	7.3	-0.4
CCCn1nc(NC(=O)c2ccccn2)c2cc3cc(C)ccc3nc21	-0.9	26.2	10.7	12.0%	18.6	0.4
C=CCn1c(=N)c(C#N)cc2c(=O)n3ccccc3nc21	-1.7	8.9	8.3	-2.5%	-0.9	-1.3
CC[C@@]1(C(=O)OC)N[C@H](CN(C)C(=O)COc2ccccc2)[C@@H]2C(=O)N(C)C(=O)[C@@H]21	-1.7	2.4	-4.1	-0.3%	12.7	1.0
CSc1ncc(C(=O)N2CCN(c3ccc(F)cc3)CC2)c(C)n1	·	-4.5	·	3.3%	·	0.9
Cc1cccc(OCC(=O)Nc2ccc(N3CCN(C(=O)c4ccco4)CC3)cc2)c1C	0.5	-15.9	-1.1	4.5%	2.3	-0.2
Cc1cccc2cc(CNCc3ccccc3)c(Cl)nc12	-2.4	6.6	-5.5	2.3%	5.1	2.3
CCS(=O)(=O)c1ccc2oc(SCC(=O)c3ccco3)nc2c1	-3.8	6.0	0.7	2.9%	-1.9	-0.7
CC(=O)c1cccc(NS(=O)(=O)c2ccc3[nH]c4c(c3c2)CCCCC4)c1	·	11.7	·	1.5%	·	-0.2
COc1cccc2cc(C(=O)OCC(=O)N3CC(C)OC(C)C3)c(=O)oc12 (configuration not stated)	-3.6	7.6	-1.3	-2.3%	3.0	-0.1
COC(=O)c1c(Sc2ccccc2)c2ccccc2n1C	-3.3	-20.3	-12.4	13.0%	11.5	1.0
Cc1ccccc1C(=O)OCCN(C)Cc1ccccc1	-5.3	-3.5	-15.8	9.9%	8.9	-0.2
NNC(=O)C(Cc1ccccc1)NC(=O)OCc1ccccc1 (configuration not stated)	-4.3	8.3	-5.3	0.8%	-0.9	5.0
Cc1nc2ccc(-c3nc4ccc(N)cc4[nH]3)cc2[nH]1	-0.5	38.4	-2.5	-1.2%	-5.6	-0.7
COc1cc(CN2CCN(CCCc3ccccc3)C(CCO)C2)cc(OC)c1O (configuration not stated)	0.3	4.8	-0.6	5.9%	-0.7	0.3
CN(c1cccc(NC(=O)COc2ccc(Cl)cc2Cl)c1)S(C)(=O)=O	-2.4	9.6	-4.6	1.3%	0.0	-0.7
Cc1cccc(N(CC(=O)NCCSCc2ccccc2)S(C)(=O)=O)c1	1.4	4.8	21.4	0.7%	0.7	1.1
CCCc1nc2cc(C)c(Br)c(C)n2c1Cc1ccccc1OC	·	·	·	?	11.1	-0.5
CNNC(=S)NC1CC2CC1C1C=CCC21 (configuration not stated)	-2.3	19.8	-0.3	4.2%	5.4	3.8
COC(=O)CSc1nn(-c2ccc(F)cc2)c(=S)s1	-1.7	9.3	6.0	1.1%	5.2	-0.7
Cc1nnc(NC(=O)c2ccc(-c3ccc([N+](=O)[O-])cc3)o2)s1	2.1	0.3	-3.8	3.1%	0.8	-0.3
Cc1cccc(NC(=O)CSc2cc(C)c(C#N)c3nc4ccccc4n23)c1	-1.3	-2.6	-2.1	6.7%	0.0	0.7
Cc1c(Br)c([N+](=O)[O-])nn1CC(=O)N1CCc2ccccc21	-2.0	21.2	-6.5	5.8%	-11.0	0.1
O=C(Cn1ncc2c3ccccc3n(Cc3ccccc3)c2c1=O)NCCCN1CCCCC1	·	5.9	·	-0.2%	·	1.2
Cc1ccc(Cn2c(CNC(=O)c3cccc(C)c3)nc3ccccc32)cc1	·	-6.1	·	4.1%	·	5.1
CCCc1c(O)nc(SCc2ccccc2)[nH]c1=O	-0.6	-3.0	0.6	-2.4%	3.4	2.4
CCn1c(=O)c(C(=O)CN2CCOCC2)c(N)n(Cc2ccccc2)c1=O	-1.2	6.3	7.0	1.6%	5.5	1.4
CC1(C)CC2CC(C)(CN2S(=O)(=O)c2ccc(C(=O)Nc3cc(S(=O)(=O)N4CCOCC4)ccc3Cl)cc2)C1 (configuration not stated)	0.2	1.2	7.6	5.5%	1.3	1.0
Cc1ccc(C)c(NC(=O)CSc2ncc(S(=O)(=O)c3ccc(C)c(Cl)c3)c(=O)[nH]2)c1	·	7.1	·	-1.7%	·	1.3
CC(C)CNC(=O)c1ccccc1SCC(=O)NC12CC3CC(CC(C3)C1)C2	-5.2	9.0	-7.2	1.5%	9.2	0.0
COCCNC(=O)/C(C#N)=C/c1c(N2CCN(c3cccc(Cl)c3)CC2)nc2c(C)cccn2c1=O	-5.4	-6.4	-14.4	-1.4%	-27.1	1.8
CCCCCOc1ccc(NC(=O)Cc2csc(C)n2)cc1	·	4.2	·	0.2%	·	3.7
CC(NC(=O)COC(=O)Cc1ccc(-c2ccccc2)cc1)c1ccccc1 (configuration not stated)	-3.9	-9.0	3.8	8.5%	0.8	1.4
CCCCC1=CC2=C(c3ccco3)C(=O)C(C)(OC(=O)c3ccc(OC)cc3)C(=O)C2=CN1c1ccc(OC)cc1 (configuration not stated)	0.3	-6.4	-3.2	3.8%	-29.7	-0.2
Cc1nc(SCC(=O)Nc2cc(C)on2)c2c(C)c(C)sc2n1	1.4	0.4	-11.3	-0.9%[38.3 µM]	3.4	-0.1
CC(C)CC1CCCCC1OC(=O)C[N+]1(C)CCCCC1 (configuration not stated)	-3.0	-16.3	-5.9	-0.6%	10.4	-0.6
COc1ccc(-n2c(SCC(=O)Nc3nccs3)nc3c(c2=O)SC(C)C3)cc1 (configuration not stated)	0.4	41.8	1.2	2.8%	20.5	1.1
Cc1cccc(NC(=O)NNC(=O)CCc2ccccc2)c1	3.4	-16.5	-1.3	-0.7%	12.0	0.5
Nc1nc(NCCc2ccccc2)nc(NCCO)c1[N+](=O)[O-]	-1.5	11.6	-5.8	-1.1%	-10.8	-0.2
N#Cc1ccc(CN2CCN(c3ccc(S(=O)(=O)N4CCCC4)cn3)CC2)cc1	-1.3	27.0	-1.5	1.5%	2.7	0.8
Cc1ccc(C2Nc3cccc4cccc(c34)N2)s1	12.7	2.3	?	9.5%	-4.4	0.8
COc1cccc(/C=N/Nc2c(Cl)cncc2Cl)c1O	9.1	-6.2	0.6	-1.3%	-17.9	-1.1
COc1ccc(S(=O)(=O)n2ccc(-c3ccc4c(c3)CCC(C)(C)O4)n2)cc1	-1.4	-28.7	-2.0	0.8%	-2.2	15.5
Cc1ccc(SC2=C(Sc3ccc(C)cc3)C(=O)c3ccccc3C2=O)cc1	11.8	1.8	18.0	?	0.3	0.0
COc1cccc(NC(=O)Nc2nnc(N3C(C)CCCC3C)s2)c1 (configuration not stated)	-2.0	-2.6	-2.3	0.2%	-1.4	0.8
Cc1c(NC(=O)Nc2ccc(C(C)C)cc2)c(=O)n(-c2ccccc2)n1C	-0.7	-7.1	-3.1	-0.5%	-0.9	-0.5
Cc1ccc(C(=O)Nc2cccc(C(F)(F)F)c2)cc1NC(=O)c1ccno1	-2.4&-3.6	-7.9&58.3	-7.4&-25.4	0.5%&-0.5%	-4.4&-0.3	-0.3&-0.3
COCCN(CCOC)S(=O)(=O)c1ccc(C(=O)NCCCN2CCOCC2)cc1	-0.9	6.6	-10.7	0.6%	1.8	-0.7
CN1CCN(CCCNC(=O)Nc2cccc3ccccc23)CC1	1.7	-0.4	-22.1	0.0%	4.1	-1.4
CCOC(=O)Cc1nnc(NC(=O)CSc2nc3ccccc3[nH]2)s1	2.5	12.9	4.0	0.5%	5.4	0.1
O=C(N1CCCC1)C12CC3CC(CC(Cl)(C3)C1)C2	-2.7	17.0	-2.6	0.0%	8.3	1.5
Cc1ccc(C)c(N2CCN(c3nccn4nc(-c5ccc(Br)cc5)cc34)CC2)c1	·	-3.3	·	1.8%	·	-0.3
CC(C)(C)N(Cc1ccccc1)C(=O)COC(=O)C1CC(=O)N(Cc2ccccc2)C1 (configuration not stated)	-3.3	-5.6	-8.2	4.9%	4.4	1.2
Cc1ccccc1N(CC(=O)NC(C)(C)C)C(=O)CCC(=O)Nc1nccs1	-2.6	17.5	-14.7	-1.0%	-1.4	-0.3
CCn1c(COc2c(C)cccc2C)nnc1SCC(=O)N1CCN(c2ccccc2)CC1	-1.4	-8.5	-20.8	-0.3%	-6.6	1.2
Cc1cc(/C=C(\C#N)C(=O)NCc2cccs2)c(C)n1-c1ccc([N+](=O)[O-])cc1	-0.9	-3.5	-14.5	-0.5%[38.3 µM]	-0.6	-0.2
COc1ccccc1NC(=O)CSc1nnc(-c2ccco2)n1N	-2.6	-15.4	-13.4	-1.3%	6.2	-0.3
Cc1ccc(-c2cc(C(=O)Nc3c(C)n(C)n(-c4ccccc4)c3=O)[nH]n2)c(O)c1	-4.1	-5.5	-10.6	-0.4%	-2.8	1.5
CC(C)c1nnc(SCC(=O)NC(C)(C)C)n1C	6.3	34.2	4.2	0.2%	1.6	0.4
O=[N+]([O-])c1ccc(N2CCCCC2)nc1N1CCCCC1	-5.4	-7.4	-10.2	3.9%	?	1.9

Part of the list above, bar-delimited:
smiles | D2 ag | TRPML1 blocker | D2 potentiator | PINK1 expr mod | Six1-Eya2 inh | TRPML1 agonist
CCOC(=O)Cc1nnc(NC(=O)CSc2nc3ccccc3[nH]2)s1 | 2.5 | 12.9 | 4.0 | 0.5% | 5.4 | 0.1
O=C(N1CCCC1)C12CC3CC(CC(Cl)(C3)C1)C2 | -2.7 | 17.0 | -2.6 | 0.0% | 8.3 | 1.5

(continued)
SMILES	D2 ag	TRPML1 blocker	D2 potentiator	PINK1 expr mod	Six1-Eya2 inh	TRPML1 agonist
COC(=O)c1c(C)c[nH]c1C	-2.9	·	-26.3	1.0%	-2.3	·
Cc1ccc(OCC(O)CNC(C)c2ccccc2)cc1C (configuration not stated)	-8.8	-5.5	-16.1	10.2%	-1.4	2.2
CC(=O)Nc1ccc2nc(CN3CCN(Cc4ccc(F)cc4)C(CCO)C3)ccc2c1 (configuration not stated)	0.0	10.6	-17.3	-0.3%	-4.2	-0.1
COc1ccc2oc(=O)c(C(=O)Nc3ccccc3C)cc2c1	-0.6	-7.2	-3.2	5.2%	?	-1.2
CCN(CC)S(=O)(=O)c1ccc2c(c1)N(CC(=O)NCCCN1CC(C)CC(C)C1)C(=O)CO2 (configuration not stated)	2.4	3.9	-19.3	-0.7%	1.4	-0.6
CC(C(=O)c1ccccc1)n1c(N2CCOCC2)nc2c1c(=O)n(C)c(=O)n2C (configuration not stated)	-0.1	-6.2	6.7	0.2%	3.9	-0.9
COc1ccc2cc(C)c3nnc(SCC(=O)Nc4nc(-c5ccc(F)cc5)cs4)n3c2c1	-0.2	43.9	-3.5	-3.3%	-13.3	-0.6
CCOc1ccc(OCC)c(NC(=O)c2c(C)nn(-c3ccccc3)c2-n2cccc2)c1	·	14.7	·	2.9%	·	0.4
CCOC(=O)C(CC)Sc1nnc2cc(C)c3ccccc3n12 (configuration not stated)	0.1	-3.0	-14.3	1.2%	-4.0	1.1
COc1ccc(C(=O)Nc2nc(C)c3cc4c(cc3n2)OCO4)cc1	-1.2	4.1	-5.9	12.8%	-12.4	-0.7
Cc1ccccc1NC(=O)COC(=O)C1=COCCO1	-0.6	14.2	1.1	-1.4%	0.4	-0.3
Cc1cc(C(=O)N/N=C/C=C/c2ccccc2)n[nH]1	-0.6	-4.2	-16.5	0.8%	-5.2	-0.2

Random draw from the library; about 1% have a hit in one of these screens.
